Screening data deposited in PubChem by several laboratories.
Autofluor counter: flagged as autofluorescent in microsphere protease counterscreen. compound autofluorescence counterscreen, microsphere flow cytometry; stronger effect = higher value. fluorescence intensity (no concentration beside the values). 3.1% of 360,000 active. AID 624483;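 active means at least 3 SD above the mean of all compounds, about 16000 in these data; inconclusive means too few beads counted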;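 further: 100 nL of 1 mM stock went into each well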
PrP UTR inh: suppresses PrP 5' UTR mRNA reporter expression. cell-based PrP 5' UTR mRNA reporter, plate reader. inhibition, % (test concentration not listed). 0.35% of 340,000 active;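 active means every replicate at 50% or more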;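 further: 0 = median of the neutral control wells; tested in H4 reporter cells; numbers are from one replicate; inactives centre near -14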
Mtb hypoxia rep: reduces hypoxia-regulated biosensor signal in M. tuberculosis | M. tuberculosis hypoxia-regulated fluorescent reporter, fluorescence | fluorescence inhibition, % (concentration not given with the values) | 0.1% of 300,000 active | AID 1159583;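 active means 35 to 45% if threefold the growth effect, above 45% if 1.5-fold the growth effect; inactive means the rest, general growth blockers included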;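 further: wells of about 50 µL received 100 nL stock; 0% = vehicle wells and 100% = reference inhibitor wells; whole bacteria with a GFP reporter of the hypoxia response; strong numbers were not always called active; many hits fall short of the cut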
BJeLR lethal: kills HRASV12-expressing BJeLR cells | BJeLR (HRASV12) viability, CellTiter-Glo ATP luminescence, 48 h; reference of the scale not given here | inhibition, % (no concentration beside the values) | 0.17% of 300,000 active | AID 1554;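 active means replicate mean above 50%; inconclusive means above 50% but judged a plate artefact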;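 further: 50 nL library stock added to about 25 µL; numbers are from one replicate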
Sa RN4220 lethal: S. aureus RN4220 growth inhibition | OD600, 16 h | inhibition, % (concentration not given with the values) | 0.33% of 330,000 active;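 active means z-score of -3 or lower and OD600 up to 0.18 on both plates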;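 further: plate controls were untreated cells for no effect and reference antibiotic for full effect; stock transfer was 100 nL into about 80 µL; one replicate is shown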
Sa ugtP lethal: compounds lethal to S. aureus RN4220 ugtP deletion mutant. OD600 growth, 16 h; some inactives read as strong as hits. growth inhibition, % (concentration not given with the values). 0.54% of 330,000 active. AID 1259309;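 active means z-score under -3 and OD600 up to 0.15 on both plates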;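 further: plate controls were untreated wells for no effect and antibiotic for full effect; wells of about 80 µL received 100 nL stock; the first replicate is given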
Mtb hypoxia rep growth: second read-out of Mtb hypoxia rep, no call of its own (marks repeat the call); growth inhibition, %; measured here: M. tuberculosis growth (absorbance);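 0% = vehicle and 100% = reference antibiotic; read after six days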
Starred values were filed as active, the others as inactive.

A first look (2 entries):
O=S(=O)(Nc1cccc(-c2cn3c(n2)SCC3)c1)c1ccc(F)cc1F was read as Autofluor counter 4961, PrP UTR inh 14.3 and BJeLR lethal -2.9.
Screening CCOc1ccc2[nH]c3c(N4CCC5(CC4)OCCO5)ncnc3c2c1 returned Mtb hypoxia rep 7.4, BJeLR lethal 4.1, Sa RN4220 lethal 5.1, Sa ugtP lethal 2.0 and Mtb hypoxia rep growth 14.9.

The listing, from the first entry:
O=S(=O)(Nc1cccc(-c2cn3c(n2)SCC3)c1)c1ccc(F)cc1F was read as Autofluor counter 4961, PrP UTR inh 14.3 and BJeLR lethal -2.9.
Screening CCOc1ccc2[nH]c3c(N4CCC5(CC4)OCCO5)ncnc3c2c1 returned Mtb hypoxia rep 7.4, BJeLR lethal 4.1, Sa RN4220 lethal 5.1, Sa ugtP lethal 2.0 and Mtb hypoxia rep growth 14.9.
Screening C=CCNC(=S)N/N=C/c1ccccc1OCCOc1ccccc1 returned Autofluor counter 3907, PrP UTR inh -12.0 and BJeLR lethal -8.0.
`COc1ccc(-c2nnn(CC(=O)Nc3ccc4c(c3)OCCO4)n2)cc1OC` gave Autofluor counter inconclusive, PrP UTR inh -11.5, Mtb hypoxia rep 2.7, Sa RN4220 lethal 7.8, Sa ugtP lethal 5.9 and Mtb hypoxia rep growth 2.4.
`O=C(Cc1ccc(Br)cc1)N1CCN(C(=O)c2ccco2)CC1` gave Autofluor counter 3494, PrP UTR inh -17.2, Mtb hypoxia rep 2.4, BJeLR lethal -9.9, Sa RN4220 lethal 2.2, Sa ugtP lethal 1.6 and Mtb hypoxia rep growth 2.6.
For C=C(C)CNC(=S)NN=Cc1ccc2c(c1)OCO2 the results were Mtb hypoxia rep -2.1, Sa RN4220 lethal 0.5, Sa ugtP lethal -13.9 and Mtb hypoxia rep growth 22.4.
`O=C(NNC(=O)C1CC(c2cccnc2)=NO1)Nc1ccccc1F` (configuration not stated) gave Autofluor counter 3334, PrP UTR inh -22.5, Mtb hypoxia rep -3.0, BJeLR lethal -7.4, Sa RN4220 lethal 0.0, Sa ugtP lethal -14.4 and Mtb hypoxia rep growth 1.5.
`CC1(C)CC(=O)C2=C(C1)c1c(ccc3ccccc13)NC2c1ccc(C(=O)O)cc1` (configuration not stated) gave Autofluor counter 3009, PrP UTR inh -35.4, Mtb hypoxia rep 2.0, BJeLR lethal 5.9, Sa RN4220 lethal 7.6, Sa ugtP lethal -1.4 and Mtb hypoxia rep growth -8.2.
Screening COC(=O)COc1ccc(NC(=O)c2ccco2)cc1 returned Autofluor counter inconclusive, PrP UTR inh -18.5, Mtb hypoxia rep -6.7, BJeLR lethal 1.7, Sa RN4220 lethal 4.6, Sa ugtP lethal 14.2 and Mtb hypoxia rep growth 9.4.
Screening CCCCn1ccc(=O)c2c(C(F)(F)F)nccc21 returned Autofluor counter 4912, PrP UTR inh -17.3, BJeLR lethal 8.5, Sa RN4220 lethal -2.7 and Sa ugtP lethal 4.6.
COc1cccc(NC(=O)N2CCCC2C(=O)Nc2ccc3c(c2)OCCO3)c1 (configuration not stated) was read as Autofluor counter 3531, PrP UTR inh -27.7, Mtb hypoxia rep -1.2, BJeLR lethal -12.9, Sa RN4220 lethal 5.4, Sa ugtP lethal 2.6 and Mtb hypoxia rep growth -2.2.
CC(=O)N(c1ccccc1C)C1CCCC1 was read as Autofluor counter 2268, PrP UTR inh -27.2, Mtb hypoxia rep 6.5, BJeLR lethal -0.9, Sa RN4220 lethal 7.1, Sa ugtP lethal 4.3 and Mtb hypoxia rep growth -0.3.
Cc1ccc(OCCCCn2ccnc2C)c(C)c1 was read as Autofluor counter 4229, PrP UTR inh -0.2, Mtb hypoxia rep 10.7, BJeLR lethal 1.1, Sa RN4220 lethal 9.6, Sa ugtP lethal 9.1 and Mtb hypoxia rep growth 21.7.
Screening Cc1nn(-c2ccccc2)c(-n2cccc2)c1C(=O)O returned Autofluor counter 9292, PrP UTR inh -13.3, Mtb hypoxia rep 1.0, BJeLR lethal -3.5, Sa RN4220 lethal -4.5, Sa ugtP lethal 1.9 and Mtb hypoxia rep growth 5.6.
For CC(C)(C)c1ccc(C(=O)NCCC(=O)N2CCN(c3ncccn3)CC2)cc1 the results were Autofluor counter 3521, PrP UTR inh -5.9 and BJeLR lethal 2.1.
O=C(Oc1ccc2c(=O)c(Oc3ccc4ccccc4c3)coc2c1)c1ccco1 was read as Autofluor counter 4709, PrP UTR inh -18.2, Mtb hypoxia rep 4.8, BJeLR lethal -0.7, Sa RN4220 lethal 26.0, Sa ugtP lethal 13.2 and Mtb hypoxia rep growth -0.4.
For Cc1cccc(Cn2c(SCCN3CCCCC3)nc3c2c(=O)[nH]c(=O)n3C)c1 the results were Autofluor counter 4554, PrP UTR inh -16.1, Mtb hypoxia rep -1.7, BJeLR lethal 2.2, Sa RN4220 lethal -12.6, Sa ugtP lethal -2.7 and Mtb hypoxia rep growth 13.6.
Cc1cccc(NC(=O)CSc2nnc(NC(=O)c3ccc(S(=O)(=O)N4CCOCC4)cc3)s2)c1C was read as Mtb hypoxia rep 4.6, BJeLR lethal 7.6, Sa RN4220 lethal 11.9, Sa ugtP lethal 1.3 and Mtb hypoxia rep growth 2.9.
`CN(NC(=O)/C=C/C(=O)O)c1ncc(C(F)(F)F)cc1Cl` gave Autofluor counter 2630, PrP UTR inh -16.7 and BJeLR lethal -8.8.
For C=CCC(O)(CC=C)C(C)N (configuration not stated) the results were Autofluor counter 4471, PrP UTR inh -15.3, Mtb hypoxia rep 5.7, BJeLR lethal 7.5, Sa RN4220 lethal 1.5, Sa ugtP lethal -1.7 and Mtb hypoxia rep growth 22.1.
Screening COc1ccc(NC(=O)C2CCCN2C(=O)Nc2ccccc2)cc1OC (configuration not stated) returned Autofluor counter 4345, PrP UTR inh -31.6, Mtb hypoxia rep 12.4, BJeLR lethal -3.4, Sa RN4220 lethal 5.3, Sa ugtP lethal 1.6 and Mtb hypoxia rep growth 11.5.
For c1ccc(CN2CCN(c3nc4ccccc4c4ccccc34)CC2)cc1 the results were Autofluor counter 3174, PrP UTR inh -29.8, Mtb hypoxia rep 5.0, BJeLR lethal -1.1, Sa RN4220 lethal 11.1, Sa ugtP lethal 0.5 and Mtb hypoxia rep growth 0.9.
`CCCCSc1nnc2c(n1)OC(C(=O)c1ccccc1)Nc1ccccc1-2` (configuration not stated) gave Mtb hypoxia rep 5.7, BJeLR lethal 17.8, Sa RN4220 lethal 27.8, Sa ugtP lethal -20.5 and Mtb hypoxia rep growth -14.4.
CCOCCOc1nc2c(c(=O)n(C)c(=O)n2C)n1CCc1ccccc1 was read as Autofluor counter 4129, PrP UTR inh -3.1, Mtb hypoxia rep -3.4, BJeLR lethal 2.7, Sa RN4220 lethal 0.6, Sa ugtP lethal 2.7 and Mtb hypoxia rep growth 4.2.
For CC(C)C(OC(=O)c1nsc(Cl)c1Cl)C(=O)NCc1ccc2c(c1)OCO2 (configuration not stated) the results were Autofluor counter 9123, PrP UTR inh -6.4, Mtb hypoxia rep -5.7, BJeLR lethal -1.3, Sa RN4220 lethal 0.8, Sa ugtP lethal 1.2 and Mtb hypoxia rep growth -4.4.
COc1ccc(C(=O)N2CCC(C(=O)c3c(C)cc(C)cc3C)CC2)cc1 was read as Autofluor counter 5955, PrP UTR inh -10.0, Mtb hypoxia rep 7.4, BJeLR lethal 1.3, Sa RN4220 lethal 4.4, Sa ugtP lethal 7.4 and Mtb hypoxia rep growth -1.0.
`CCCCn1c(=O)c(C(=O)c2ccccc2)nc2ccccc21` gave Autofluor counter 21629*, PrP UTR inh -18.1, Mtb hypoxia rep 1.6, BJeLR lethal 0.4, Sa RN4220 lethal 4.5, Sa ugtP lethal -8.3 and Mtb hypoxia rep growth 14.8.
Screening CCOc1ccc(Nc2cc(=O)n(C)c(=O)n2C)cc1 returned PrP UTR inh -44.0, Mtb hypoxia rep 0.0, BJeLR lethal -4.1, Sa RN4220 lethal -14.8, Sa ugtP lethal -5.6 and Mtb hypoxia rep growth 9.4.
`Cc1ccc(S(=O)(=O)NC2CCCc3ccccc32)cc1C` (configuration not stated) gave Autofluor counter 3197, PrP UTR inh -0.4, Mtb hypoxia rep 9.5, BJeLR lethal -7.9, Sa RN4220 lethal 6.0, Sa ugtP lethal 2.3 and Mtb hypoxia rep growth 8.9.
`O=C(NCCCN1CCCC1=O)c1cccc(S(=O)(=O)N2CCCCC2)c1` gave Autofluor counter 8248, PrP UTR inh -21.6, Mtb hypoxia rep -0.3, Sa RN4220 lethal 4.3, Sa ugtP lethal 2.9 and Mtb hypoxia rep growth -0.4.
O=C(CC1Nc2cccc3cccc(c23)NC1=O)Nc1ccccc1 (configuration not stated) was read as Autofluor counter 2174, PrP UTR inh 8.3 and BJeLR lethal -3.6.
Screening Cn1ncc(Br)c1NC(=O)CSc1ccc(Cl)cc1 returned Autofluor counter 4426, PrP UTR inh -35.0, Mtb hypoxia rep -2.8, BJeLR lethal 4.8, Sa RN4220 lethal 4.9, Sa ugtP lethal 2.0 and Mtb hypoxia rep growth -4.0.
COc1ccc(S(=O)(=O)NCC(=O)N(CC(=O)NCc2ccco2)C2CCCC2)cc1 was read as Autofluor counter 5726, PrP UTR inh -44.0, Mtb hypoxia rep 3.7, BJeLR lethal 3.1, Sa RN4220 lethal 2.4, Sa ugtP lethal 7.1 and Mtb hypoxia rep growth 13.8.
Screening O=C(NC1CCCC1)C(c1ccncc1)N(C(=O)c1csnn1)c1cccc(F)c1 (configuration not stated) returned Autofluor counter 6298, PrP UTR inh -2.9, Mtb hypoxia rep 14.5, BJeLR lethal -4.4, Sa RN4220 lethal 5.3, Sa ugtP lethal 3.3 and Mtb hypoxia rep growth 0.1.
O=C(COc1ccc(Cl)cc1Cl)Nn1c(=S)[nH]c2ncccc2c1=O was read as Autofluor counter 9268, PrP UTR inh -21.3, Mtb hypoxia rep 2.6, BJeLR lethal -8.7, Sa RN4220 lethal 23.5, Sa ugtP lethal -6.4 and Mtb hypoxia rep growth -4.4.
For Clc1ccc(-c2nc3ccccn3c2CN2CCOCC2)cc1 the results were Autofluor counter 4388, PrP UTR inh -13.0, Mtb hypoxia rep 5.2, BJeLR lethal -4.9, Sa RN4220 lethal 1.6, Sa ugtP lethal 6.1 and Mtb hypoxia rep growth -1.5.
COc1cc(/C=C2\SC(=Nc3ccc(O)cc3)NC2=O)cc(OC)c1OC was read as Mtb hypoxia rep -5.4, BJeLR lethal 40.2, Sa RN4220 lethal 9.5, Sa ugtP lethal 19.8 and Mtb hypoxia rep growth 7.6.
Screening O=C(NCCCCCCNC(=O)c1ccccc1O)c1ccccc1O returned Autofluor counter 3785, PrP UTR inh -17.2, Mtb hypoxia rep 10.6, BJeLR lethal -4.7, Sa RN4220 lethal 0.1, Sa ugtP lethal 0.9 and Mtb hypoxia rep growth 10.1.
CSc1ccc(-c2nc(CN(C)C3CCOC3)c(C)o2)cc1 (configuration not stated) was read as Autofluor counter 4316, PrP UTR inh -47.9, Mtb hypoxia rep 15.2, BJeLR lethal -3.5, Sa RN4220 lethal 7.9, Sa ugtP lethal 4.0 and Mtb hypoxia rep growth 2.9.
`COc1ccc(N2CCN(C(=N)/C(C(C)=O)=C(\C)O)CC2)cc1` gave Autofluor counter inconclusive, PrP UTR inh -17.8, Mtb hypoxia rep -3.4, BJeLR lethal -0.3, Sa RN4220 lethal -2.5, Sa ugtP lethal -4.7 and Mtb hypoxia rep growth 2.9.
`Cn1cccc1/C=N/N1CCN(c2ccccc2)CC1` gave Autofluor counter 4660, PrP UTR inh -8.4 and BJeLR lethal -8.2.
CC1Sc2ccc(C(=O)N3CCCC(C(F)(F)F)C3)cc2NC1=O (configuration not stated) was read as PrP UTR inh -1.3, Mtb hypoxia rep -0.6, BJeLR lethal -12.3, Sa RN4220 lethal 1.2, Sa ugtP lethal -0.1 and Mtb hypoxia rep growth 14.7.
Screening CSC(=NNC(=O)c1ccc(O)cc1)SC returned Autofluor counter 2214, PrP UTR inh -26.1, Mtb hypoxia rep 3.9, BJeLR lethal 5.8, Sa RN4220 lethal -15.0, Sa ugtP lethal -5.2 and Mtb hypoxia rep growth -4.2.
For Cc1cccnc1NC(=S)Nc1ccc(Br)cc1Cl the results were Autofluor counter 4554, PrP UTR inh -126.5, Mtb hypoxia rep 9.4, BJeLR lethal 1.7, Sa RN4220 lethal -1.4, Sa ugtP lethal 20.9 and Mtb hypoxia rep growth 10.3.
For CC(C)NC(=O)C1(c2ccccc2)CCOCC1 the results were Autofluor counter 2499, PrP UTR inh -2.5, Mtb hypoxia rep 7.3, BJeLR lethal 5.6, Sa RN4220 lethal -11.1, Sa ugtP lethal -3.8 and Mtb hypoxia rep growth 2.8.
